# PV pol inh – inhibitors of poliovirus RNA polymerase binding and polymerization | P03300 | hit rate 0.66% among 150,000 | poliovirus polymerase elongation, fluorescence polarization; hits give low values | AID 588519 | % elongation, % (compound at 16.7 µg/mL); in the data active = % elongation below about 90%; note: some results filed as inactive read as strong as hits
# Target sequence (P03300 1749-2209 limits assumed): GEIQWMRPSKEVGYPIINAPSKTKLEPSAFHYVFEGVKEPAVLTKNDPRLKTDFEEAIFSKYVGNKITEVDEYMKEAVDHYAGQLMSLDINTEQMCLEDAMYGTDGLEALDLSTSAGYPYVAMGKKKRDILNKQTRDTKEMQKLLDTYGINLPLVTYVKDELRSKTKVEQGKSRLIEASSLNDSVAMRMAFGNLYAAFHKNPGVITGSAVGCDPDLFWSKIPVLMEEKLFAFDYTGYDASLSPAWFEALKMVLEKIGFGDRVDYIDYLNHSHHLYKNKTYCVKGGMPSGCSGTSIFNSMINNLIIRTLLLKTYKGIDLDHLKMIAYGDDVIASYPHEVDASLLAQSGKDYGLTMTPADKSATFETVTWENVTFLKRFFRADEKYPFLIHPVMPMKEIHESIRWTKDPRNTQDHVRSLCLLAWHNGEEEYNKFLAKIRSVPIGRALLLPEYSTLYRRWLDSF
# MenB inh – Mtb MenB enzyme inhibition. P9WNP5. AID 540299. MenB enzyme assay, absorbance read-out; some hits fall short of the stated cut. inhibition, %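 (about 12 µg/mL by stock and volumes)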. hit rate 0.43% among 100,000;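 active = mean of two replicates above 30%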;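 note: 0% = no compound and 100% = wells with inactive enzyme; the first replicate is given; strong numbers were not always called active; inactives centre near -10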
# MbtI inh – MbtI salicylate synthase inhibition; P9WFX0; purified MbtI enzyme, fluorescence intensity read-out; inhibition, %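 (about 17 µg/mL by stock and volumes)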; hit rate 0.89% among 100,000;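 active = above 50% in both replicates, above 80% if mildly self-fluorescent; inactive = the rest, strongly fluorescent compounds included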;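 note: 0% = mean of negative and 100% = mean of positive controls; one replicate is shown; some compounds called inactive have numbers as strong as hits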
# Target sequence (P9WFX0 whole entry, looked up): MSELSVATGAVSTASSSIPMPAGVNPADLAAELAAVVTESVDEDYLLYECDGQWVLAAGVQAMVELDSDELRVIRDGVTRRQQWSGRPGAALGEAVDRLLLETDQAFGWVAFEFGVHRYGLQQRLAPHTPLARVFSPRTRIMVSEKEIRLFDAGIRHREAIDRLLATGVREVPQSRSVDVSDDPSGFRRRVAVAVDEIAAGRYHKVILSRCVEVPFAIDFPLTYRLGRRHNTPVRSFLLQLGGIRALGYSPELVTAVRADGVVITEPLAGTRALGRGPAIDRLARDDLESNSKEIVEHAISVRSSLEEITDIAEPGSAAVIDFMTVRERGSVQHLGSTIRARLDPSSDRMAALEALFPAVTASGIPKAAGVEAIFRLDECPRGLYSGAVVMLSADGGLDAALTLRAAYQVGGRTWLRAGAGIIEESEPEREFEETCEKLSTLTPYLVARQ
# PV pol inh intensity – further read-out of PV pol inh, marked with its call; % elongation; measured here: total intensity read-out; formula for this scale not given here;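 total fluorescence in place of polarization; lower means less elongation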
# Active calls of the source: *; i = inactive; nt = no result given. This is a random part of the collection; 2% or so of the library scored in one or more.
SMILES	PV pol inh	PV pol inh intensity	MenB inh	MbtI inh
O=C(CSc1nc2ccccc2c(=O)n1CCc1ccccc1)NCc1ccco1	102	96	-13	2
CCCNC(=O)c1cc2sc(C)cc2n1C	101	103	5	12
Cc1cc(-n2cnc(-c3cn(C)nc3C)n2)no1	102	103	-7	15
O=C(Cn1c(=O)c2cccn2c2ccccc21)NC1CCCC1	103	107	-4	-5
CCN(CC)NC(=S)Nc1ccccc1	101	101	24	-1
CCc1ccc(C(=O)Nc2nccs2)cc1	102	105	-7	0
O=C(CC1CCCC1)Nc1noc2ccccc12	102	102	-14	-8
N#Cc1c(NC(=O)C2CC(=O)NN2Cc2ccccc2)sc2c1CCCC2 (stereo unspecified)	101	103	-32	9
O=C(OCc1ccc(C#Cc2ccccc2)s1)c1cccs1	111	113	-1	-9
CC(Sc1ncnc2ccccc12)C(=O)Nc1cccc(Cl)c1 (stereo unspecified)	101	107	nt	-9
O=C1S/C(=C\c2cn(Cc3ccccc3)c3ccccc23)C(=O)N1CN1CCCCC1	101	98	-42	-4
CC1(C)CC(=O)C2=C(C1)N=C1SCCC(=O)N1C2c1ccc(Br)cc1 (stereo unspecified)	105	100	-1	2
Cc1ccc(-c2nn(CCC#N)cc2C(=O)O)cc1C	103	100	-3	-6
O=C(COc1ccc(-c2ccccc2)cc1)Nc1cccnc1	99	102	nt	-6
CCC1=CC(c2ccccc2)NC(=S)N1 (stereo unspecified)	105	110	-23	nt
Clc1ccc(CSc2ncc(-c3ccc(Cl)cc3)[nH]2)cc1	104	103	-7	-6
CCOC(=O)c1cnc2c(F)ccc(F)c2c1Oc1cccnc1	99	92	-12	16
O=C(c1cc2c(s1)-c1ccccc1S(=O)(=O)C2)N1CCCC1	103	103	-14	6
Cc1ccccc1C(=O)CC#N	104	100	-57	-41
Cc1cccc(NC(=O)OC2CCCCC2)c1	103	101	nt	-6
CCC(=O)Nc1ccc(C2=CSC3=NS(=O)(=O)CCN23)cc1	106	106	-30	4
O=C(O)/C=C/C(=O)Nc1ccc(OC(F)F)cc1	102	108	-7	1
COc1ccc(OC)c(NC(=O)c2ccc(CSc3nnnn3C)cc2)c1	101	102	-20	-3
N#CC(C#N)=Cc1cc2ccccc2nc1N1CCCCC1	107	102	-38	-9
O=c1[nH]c2c(s1)C1c3ccccc3OC3CCCC(S2)C31 (stereo unspecified)	nt	nt	-51	-4
CC1CCCCC1NC(=O)c1cc(=O)c2ccccc2o1 (stereo unspecified)	100	107	-9	-4
CN=C1SC(CC(=O)Nc2cccc(C(=O)O)c2)C(=O)N1C (stereo unspecified)	102	104	2	-25
O=C(Cc1ccccc1)NC1CCCCCC1	101	105	7	nt
CC(=O)Nc1ccc(-n2ccnc2P(=O)(O)c2ccccc2)cc1	94	95	9	5
Cc1ccccc1N/C(=N\S(=O)(=O)c1ccccc1)c1ccccc1	104	95	-23	2
Cc1c(Cl)cccc1N=C1NC(=O)/C(=C/c2ccco2)S1	101	104	-13	-19
C=CCNC(=O)C(C)N1CCN(C)CC1 (stereo unspecified)	100	102	5	2
O=C(CSc1nncn1-c1ccccc1)N1CCCC1c1ccc2c(c1)OCCO2 (stereo unspecified)	103	98	-20	2
COCOc1ccc(C(=O)O)cc1OC	100	99	-12	-5
O=C(CN1CCN(c2ccccc2)CC1)N1c2ccccc2CCc2ccccc21	106	107	-6	-5
C=CCn1c(COc2ccc(Cl)cc2)nnc1SCC(=O)N1CC(=O)Nc2ccccc21	104	112	-19	-7
CCOc1cccc2cc(C(=O)N3CCc4ccccc43)c(=O)oc12	102	102	-19	1
CC1=Nc2nc(N3CCCC3)c(C#N)c3c4c(nc(c23)N1)N(c1ccc(S(N)(=O)=O)cc1)C(=O)C4	109	111	-1	51
COC(=O)c1cc(CSc2ncnc3sccc23)oc1C	103	113	-13	-13
Cc1cc(C)nc(NNC(=S)NC2CC3CCC2C3)n1 (stereo unspecified)	105	104	-17	10
C/C(=N\NC(=O)CSc1ncccn1)c1ccc(C)cc1	100	99	16	1
CCc1c(C)nc(SCC(=O)N2CCN(c3ccccc3)CC2)[nH]c1=O	103	104	-24	-10
CCOC(=O)Cn1c(=O)c(C(=O)NC(=O)OCC)cn(Cc2ccccn2)c1=O	103	94	-20	-3
CC(C)COc1ccc(C(O)c2ccccc2)cc1 (stereo unspecified)	97	100	-21	nt
Clc1cc2c(c(CSc3nnc(-c4ccco4)n3-c3ccccc3)c1)OCOC2	103	109	-12	16

# Arranged by heavy-atom count (ascending): some entries from above.
SMILES	PV pol inh	PV pol inh intensity	MenB inh	MbtI inh
C=CCNC(=O)C(C)N1CCN(C)CC1 (stereo unspecified)	100	102	5	2
CC(C)COc1ccc(C(O)c2ccccc2)cc1 (stereo unspecified)	97	100	-21	nt
Cc1c(Cl)cccc1N=C1NC(=O)/C(=C/c2ccco2)S1	101	104	-13	-19
O=C(CN1CCN(c2ccccc2)CC1)N1c2ccccc2CCc2ccccc21	106	107	-6	-5

# The results go on.
Compound	PV pol inh	PV pol inh intensity	MenB inh	MbtI inh
Cc1ccc(S(=O)(=O)C(F)(F)F)cc1N	104	104	nt	4
Cn1c(O)c(/C=C/c2ccc3ccccc3n2)c(=O)[nH]c1=O	74	196	-16	1
NNC(=O)c1cc2sc(Cl)cc2[nH]1	99	104	-1	8
Cc1cc(C)c2c(N)c(C(=O)NN3CC(=O)N(c4ccccc4)CC3=O)sc2n1	99	99	-10	-41
Cc1cc(-c2ccc(C)c(S(=O)(=O)N3CCN(C4CCCCC4)CC3)c2)n[nH]1	104	102	4	14
c1ccc(CC2CCCNC2)cc1 (stereo unspecified)	100	101	21	3
N#CC1=C(N)Oc2c(c(=O)oc3ccccc23)C1Cc1ccccc1 (stereo unspecified)	105	106	-10	-10
CCN(Cc1cc(=O)n2c(C)csc2n1)c1ccc(OC)cc1	101	104	-6	22
COc1ccc(/C=N/N2C(=O)C3C=CC=CC3N=C2C)cc1OC (stereo unspecified)	101	98	-2	4
O=C(O)C1CC(=O)N(c2cccc(C(F)(F)F)c2)C1 (stereo unspecified)	104	99	-6	-8
CCOCCSc1nnc2n(-c3ccccc3)c(=O)c3ccccc3n12	105	107	2	35
Nc1nc(-c2ccccc2)c(-c2ccccc2)o1	101	100	nt	-189
Cc1nnc(SC(=O)N2c3ccccc3Sc3ccccc32)s1	101	99	-48	0
Cc1ccccc1NC(=O)CS(=O)(=O)c1ccccc1	99	104	-11	1
CC(=O)Nc1cccc(-c2csc(C)n2)c1	99	100	-2	-1
CCc1ccccc1NC(=S)N(Cc1ccco1)C(C)c1ccco1 (stereo unspecified)	100	101	-36	-5
O=C(CN1CCCc2ccccc21)N/N=C/c1ccccc1	103	103	-17	18
O=C(O)CCc1ccc(-c2ccccc2)n1-c1cccc(O)c1	102	106	10	-135
Cc1cccc(-c2nsc(SCC(=O)OCc3ccccc3)n2)c1	95	94	-13	19
Cc1cc(C(=O)O)c2cc(Br)ccc2n1	100	101	12	4
Cn1c(=O)c(=O)n(C)c2cc(S(=O)(=O)N3CC(=O)N(CCc4ccccc4)C(=O)C3)ccc21	102	101	-18	28
O=C(c1ccc2c(Cl)c3c(nc2c1)CCC3)N1CCCC1	101	104	-5	8
Cc1ccc(C)c(N2C(=O)c3ccc(C(=O)N4CCCN(C)c5nc6ccccc6nc54)cc3C2=O)c1	101	95	-11	3
CN1c2ccccc2C(C)(C)C12CC(c1ccc(S(=O)(=O)N(C)C)cc1)=NO2 (stereo unspecified)	97	92	-9	-2
O=C(Nc1cccc(Br)c1)C1C(c2ccccc2)=C1c1ccccc1	102	106	-15	4
CCOC(=O)N1CCN(C(=O)c2ccc3c(=O)n(CCC4=CCCCC4)c(=S)[nH]c3c2)CC1	99	103	-2	-11
O=C(CSc1ccccc1)Nc1ccncc1	99	103	-14	19
O=c1[nH]nc(Cc2ccncc2)c2ccccc12	103	108	nt	-5
S=C=NCCn1ccc2ccccc21	102	99	-77	93*
Cc1ccc(C(=O)OC2CCCN(C)C2)cc1 (stereo unspecified)	103	104	-9	nt

# Compound profiles (already shown). Screens in order: PV pol inh | PV pol inh intensity | MenB inh | MbtI inh
# Cc1ccc(C(=O)OC2CCCN(C)C2)cc1 (stereo unspecified) as listed: 103 | 104 | -9 | nt
# Cn1c(=O)c(=O)n(C)c2cc(S(=O)(=O)N3CC(=O)N(CCc4ccccc4)C(=O)C3)ccc21 as listed: 102 | 101 | -18 | 28
# O=C(c1ccc2c(Cl)c3c(nc2c1)CCC3)N1CCCC1 as listed: 101 | 104 | -5 | 8
# CN1c2ccccc2C(C)(C)C12CC(c1ccc(S(=O)(=O)N(C)C)cc1)=NO2 (stereo unspecified) as listed: 97 | 92 | -9 | -2

# (listing goes on)
Compound	PV pol inh	PV pol inh intensity	MenB inh	MbtI inh
O=C1CSC2(C(=O)N(CN3CCCCC3)c3ccccc32)N1c1ccccc1 (stereo unspecified)	102	104	-3	-9
O=C1CSC(c2ccccc2)N1C1CC1 (stereo unspecified)	105	109	-16	-11
COc1ccc(-c2csc3ncnc(NCCSCc4ccco4)c23)cc1	98	99	-19	16
CCc1ccc(CNC(=S)Nc2ccc3nc(N4CCCC4)cc(C)c3c2)cc1	103	106	-71	-40
Cc1cc(S(=O)(=O)Nc2ccsc2C(N)=O)c(Cl)cc1Cl	106	111	-3	-3
CCC1(C)NC(=S)N(c2ccccc2)N1 (stereo unspecified)	100	102	-4	18
O=S1(=O)CCN2N=C(C3CC3)SC2=N1	110	107	-1	-9
Cc1cc(C(=O)Cn2cnc3ccc(Cl)cc3c2=O)c(C)n1CC1CCCO1 (stereo unspecified)	109	112	-10	9
O=C(O)c1ccc(CSc2nc3ccccc3[nH]2)cc1	98	103	-7	18
Cc1ccccc1/C=N/N=C1/NC(=O)CCS1	102	99	2	20
O=C(c1cccnc1)N1N=C(C(F)(F)F)CC1(O)c1ccncc1 (stereo unspecified)	109	109	-15	nt
Cc1c(C(=O)Nc2ccc(F)cc2F)sc2ncnc(N3CCC(C)CC3)c12	102	105	-29	-7
CCN(CC)C(=O)CSc1nnc(-c2ccco2)n1CC1CCCO1 (stereo unspecified)	99	102	-21	6
CC(=O)N(CCCN1CCOCC1)Cc1ccncc1	98	99	11	-1
CCOC(=O)C1CCN(C(=O)c2cnn(-c3ccc(OC)cc3)c2C)CC1	99	103	11	1
Cc1nn(-c2ccccc2)c(C)c1/C=N/n1c(=S)[nH]nc(C)c1=O	104	100	-19	2
COc1cc(C(=O)NCc2nnc(SCC(=O)NC3CCCCC3)o2)cc(OC)c1OC	101	103	-11	-5
O=C(CNCCO)N1CCN(S(=O)(=O)c2ccc3ccccc3c2)CC1	108	109	-13	2
CCc1cc(=O)oc2c(C)c(OCC(=O)Nc3ccc4c(c3)OCO4)ccc12	80*	87*	-20	7
CCOC(=O)N1CCN(C(=O)CN(C)S(=O)(=O)c2cc(Cl)ccc2Cl)CC1	102	102	-15	-3
CC(N=c1ccccn1C(=O)Nc1ccc(Cl)c(Cl)c1)c1ccco1 (stereo unspecified)	97	106	1	-6
O=C(NC(O)C(=O)c1cccs1)c1ccncc1 (stereo unspecified)	104	100	-12	0
COc1ccc(NC2CS(=O)(=O)CC2OC(=O)c2ccc(F)cc2)cc1 (stereo unspecified)	106	106	-19	nt
CC1c2ccsc2CCN1C(=S)NC(=O)c1cccs1 (stereo unspecified)	111	105	-13	3
O=C(CSc1nncn2c1cc1occc12)NCCc1ccccc1	100	101	-13	9
CC(=O)n1nc(-c2ccccc2)nc1N	101	102	3	-10
Cc1ccc2c(c1)c1c(n2C)C(O)CCC1 (stereo unspecified)	99	103	-44	nt
O=C(COC(=O)/C=C/c1ccco1)Nc1ccccc1C(F)(F)F	104	99	nt	1
Cc1ccc(NC(=O)C2=C(O)CCn3c2nc2ccccc23)cc1	99	102	-46	-13
Cc1cccc(N2CC(c3nc4ccccc4[nH]3)CC2=O)c1 (stereo unspecified)	101	100	9	-2
CC1=C(C)CC(C(=O)Nc2ccc3c(c2)oc2ccccc23)C(C(=O)O)C1 (stereo unspecified)	103	109	3	nt
COc1ccc2ccc(OC)c(/C=C3/NC(=O)NC3=O)c2c1	100	102	-32	-26
O=C(/C=C/c1cccs1)NC1CCCC1	106	107	-10	23
NC1=NC(=Nc2ccc(S(N)(=O)=O)cc2)c2ccccc21	102	86	-45	2
COc1ccc(CC(C(=O)O)c2ccccc2)cc1 (stereo unspecified)	102	98	-27	-2
O=c1[nH]cnc2c1[nH]c1ccccc12	103	101	-4	i
CC1CCN(Cc2nc(N)nc(Nc3ccc(Cl)cc3)n2)CC1	95	98	-9	-8
CCOc1ccccc1-c1noc(CCCC(=O)Nc2cc(C(F)(F)F)ccc2Cl)n1	104	100	3	-5
Cc1cc(C)cc(OC(=O)c2cccnc2)c1	99	97	0	7
COC(=O)/C(=C(/O)CSc1nnc(C)n1C1CCCCC1)c1nc2ccccc2[nH]1	99	103	-8	8
CCCCC(CC)C1OCC(C)O1 (stereo unspecified)	100	106	17	0

# Source: PubChem (ICCB-Longwood Screening Facility, Harvard Medical School)
